N370S GC mod: N370S glucocerebrosidase modulation, Gaucher chaperone candidate. P04062. N370S GC spleen homogenate, 4MU-glucoside fluorescence. Potency, µM (titrated, usually from 59.4 µM), for the others: top-dose activity change, negative = inhibition, usual class: inhibitors. 330,000 tested, 0.092% active;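 further: 0% = full enzyme activity and -100% = no enzyme basal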
TDP1 inh: TDP1 (human) enzyme inhibition | Q9NUW8 | recombinant TDP1, AlphaScreen DNA substrate cleavage | Potency, µM (doses to about 130 µM), for the others: top-dose activity change, negative = inhibition, most hits filed as inhibitors | 350,000 tested, 0.28% active | AID 485290; further: nearly all actives have a fitted effect of over 40% in size
Target sequence (Q9NUW8 whole entry, looked up): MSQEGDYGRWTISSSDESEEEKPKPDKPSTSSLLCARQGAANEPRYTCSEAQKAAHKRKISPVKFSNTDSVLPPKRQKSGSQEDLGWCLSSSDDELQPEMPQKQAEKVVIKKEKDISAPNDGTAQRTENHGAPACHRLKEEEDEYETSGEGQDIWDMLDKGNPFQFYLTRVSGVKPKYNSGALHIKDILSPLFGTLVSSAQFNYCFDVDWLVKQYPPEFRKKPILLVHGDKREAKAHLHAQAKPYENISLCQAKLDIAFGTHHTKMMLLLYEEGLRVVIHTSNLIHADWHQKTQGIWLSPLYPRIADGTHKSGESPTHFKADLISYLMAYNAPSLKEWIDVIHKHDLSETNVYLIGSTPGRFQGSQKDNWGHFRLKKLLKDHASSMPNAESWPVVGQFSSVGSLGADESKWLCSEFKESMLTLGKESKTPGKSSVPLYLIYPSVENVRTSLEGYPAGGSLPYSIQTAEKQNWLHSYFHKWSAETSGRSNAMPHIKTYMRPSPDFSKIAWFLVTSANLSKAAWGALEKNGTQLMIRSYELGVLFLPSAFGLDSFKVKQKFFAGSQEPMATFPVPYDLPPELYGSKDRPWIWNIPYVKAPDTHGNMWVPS
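AlphaScreen read-out: signal falls as enzyme removes the 3' tyrosine-FITC from a 5'-biotinylated DNA oligo (15 nM, 5 min, RT). Enzyme was E. coli-made recombinant Tdp1 at 1 nM, exposed to compound for 15 min beforehand; beads 10 ug/ml, 10 min.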
An asterisk follows results filed as active; u = inconclusive; x = no result given; & = joins results of further samples; [ ] = remark or other dose. The call rests on the fitted dose curve; in most records, active means well fitted curve in the direction sought with a large enough effect; inconclusive means small, poorly fitted or top-dose-only effect, or another doubt; inactive means no such curve, though single readings can be large; an effect the other way counts as inactive or inconclusive. Unless noted, on the % scale 0 is the no-effect control and ±100 the full control effect; potency means the concentration at half of the fitted maximal effect.

SMILES | N370S GC mod | TDP1 inh
Cc1ccc(C)c(NC(=O)CCN2C(=O)C3CC=CCC3C2=O)c1 (centres undefined) | x | 0%
COc1ccc(Br)cc1CN(C)C(=O)C1=CC=CN2CCS(=O)(=O)N=C12 | x | -2%
C/C(CC(=O)Nc1cc(C)ccn1)=N\NC(=O)C(=O)NC(C)C | 1% | 6%
O=C(CN1CCCCC1)N1N=C(c2cccs2)CC1c1cccs1 (centres undefined) | -6% | 5%
COc1ccccc1C(=O)Nc1ccc(C(=O)O)cc1 | 4% | 4%[56.1 µM]
O=C(COC(=O)[C@@H]1CC(O)CN1S(=O)(=O)c1ccc([N+](=O)[O-])cc1)NC12CC3CC(CC(C3)C1)C2 (some centres undefined) | 7% | -3%
O=S(=O)(c1ccc2c(c1)OCCO2)N1CCC(n2nnc3cc(C(F)(F)F)ccc32)CC1 | -16% | 5%
COc1cc(OC)c(C2=NOC(C(=O)Nc3c(C)n(C)n(-c4ccccc4)c3=O)C2)cc1Cl (centres undefined) | 1% | 5%
Cc1ccc(-n2ncc3ccccc3c2=O)cc1Cl | 10% | 4%
Cc1c(C)c(C)c(S(=O)(=O)NCCc2ccncc2)c(C)c1C | -4% | x
Cc1cccn2c(=O)c(/C=C(\C#N)S(=O)(=O)c3ccc(Cl)cc3)c(N3CCC(C(N)=O)CC3)nc12 | 4% | 9%
CCCCN(CCCC)CCCN1CC(=O)N2[C@@H](Cc3c([nH]c4ccccc34)C2(C)C)C1=O | -14% | x
CCOc1ccc(C2=Nn3c(nnc3-c3ccccn3)SC2)cc1 | 3% | 6%
CNC(=O)COc1ncnc2sccc12 | 11% | 4%
Cc1nc2cc(-c3ccccc3)ccc2o1 | 6% | 0%
Cc1cc(C)cc(NC(=O)CCc2ccc(C)o2)c1 | 4% | 7%
O=C(COc1ccc(F)cc1Br)Nc1ccccc1N1CCOCC1 | u | 1%
Cc1ccc(C)c(Oc2ncnc(N)c2[N+](=O)[O-])c1 | 10% | 3%
CN(C)c1ccc(S(=O)(=O)N2CCCCC2)cc1NC(=O)CN1C(=O)NC(C)(c2ccccc2)C1=O (centres undefined) | -6% | x
Cc1cc2c(C)nc(Cc3ccccc3)nc2o1 | 8% | 5%
N#CCC(=O)NN=C1CCCCCCCCCCC1 | -23% | -8%
O=C(Nc1ccccc1)OCCNC(=O)c1cccc(Br)c1 | -1% | x
CC1CCN(C(=O)Cn2cc(SCC(=O)NCC3CCCO3)c3ccccc32)CC1 (centres undefined) | -19% | 0%
CCOC(=O)c1cc2c(=O)n3ccccc3nc2n(C(C)C)c1=NC(=O)c1c(-c2ccccc2Cl)noc1C | -2% | -3%
COc1ccc2ccccc2c1/C=N/NC(=O)c1cccc([N+](=O)[O-])c1 | -10% | x
COc1ccc(S(=O)(=O)N2CCCC(C(=O)NCc3cccnc3)C2)cc1 (centres undefined) | -5% | 15%
CC1(C)CC2CC(C)(CN2Cc2c(O)ccc3ccccc23)C1 (centres undefined) | 3% | 8%
COc1ccc(N2CCN(CC(=O)Nc3ccc(C)c(C)c3)CC2)cc1 | -26% | x
COc1ccc(N(C)C(=O)c2onc3c2CCCC3)cc1 | 2% | -3%
CN(C)c1ccc(C=NCCC2(O)CCOC(C)(C)C2)cc1 (centres undefined) | -11% | -2%
Cc1ccc(-n2nc3c(c2NC(=O)/C=C\c2ccc4c(c2)OCO4)CSC3)c(C)c1 | 5% | 4%
Cc1ccccc1Nc1c(-c2cccnc2)nc2cccc(C)n12 | -9% | 3%
Cc1ccc(C)c(NC(=O)CN(C)C(=O)Cn2c(=O)oc3ccccc32)c1 | -1% | x
COc1cccc(N2C(=O)CC(N3CCc4ccccc43)C2=O)c1 (centres undefined) | 10% | -1%
CCOC(=O)c1sc2ncnc(N3CCN(CC)CC3)c2c1C | -8% | -1%
COC(=O)[C@@H](NC(=O)Nc1cc(Cl)ccc1C)C(C)C | 13% | -8%
OC(COCC1CC=CCC1)Cn1cnc2ccccc21 (centres undefined) | 0% | 8%
CSc1cccc(NC(=O)NNC(=O)C2CCN(S(=O)(=O)N(C)C)CC2)c1 | -5% | 0%
CC(C)(C)c1nc(Sc2ncccc2[N+](=O)[O-])n[nH]1 | 6% | 0%
COc1cc(OC)cc(C(=O)NNC(=O)CN2C(=O)NC(C)(c3ccccc3)C2=O)c1 (centres undefined) | -11% | 0%
CCN(C(=O)CN1C(=O)COc2ccc(S(=O)(=O)N3CCOCC3)cc21)c1ccc(OC)cc1 | -1% | 11%&5%
O=C(NC1CCCc2c1cnn2-c1cc(F)cc(F)c1)c1ccc[n+]([O-])c1 (centres undefined) | -8% | 1%
O=C(O)CCCC(=O)Nc1ccc(Cl)cc1 | 6% | 5%
O=C(NCC(c1ccco1)N1CCN(c2ccccc2)CC1)c1cccs1 (centres undefined) | 0% | x
S=C(c1ccccc1)N1CCSCC1 | 1% | x
CN(C)c1nc(Oc2ccc(=O)[nH]n2)nc(N2CCCCC2)n1 | -7% | 3%
COCCNC(=O)C1CCN(Cc2cccc(OCc3ccccc3)c2)CC1 | -1% | x
Cc1ccccc1/C=C/c1nc2ccccc2c(=O)[nH]1 | 10% | 2%
COCCn1nnnc1C(c1cc2ccc(OC)cc2[nH]c1=O)N1CCN(C2CCCCC2)CC1 (centres undefined) | -1% | 2%
O=C(Nc1cccc(F)c1)c1cccnc1NCCc1ccccc1 | 1% | -5%
CCOc1ccc(N2C(=O)C3C(c4ccccc4F)NN(C(=O)c4ccc(C)cc4)C3C2=O)cc1 (centres undefined) | 12% | -8%
Cc1ccc(/C(=C/CN2CCCC2)c2ccccn2)cc1 | -6% | 4%
Cc1c(C(Nc2ccccn2)c2ccc(Cl)cc2)c(=O)n(-c2ccccc2)n1C (centres undefined) | 9% | 3%
CC(CC(=O)NCCc1ccc(Cl)cc1)S(=O)(=O)c1ccc2c(c1)NC(=O)CO2 (centres undefined) | -4% | -1%
Cc1ccc2cc(C#N)c(NCCCNC(=O)C3CCCO3)nc2c1 (centres undefined) | u | -4%
CCCCOC(=O)Nc1ccc(S(=O)(=O)Nn2cnnc2)cc1 | -5% | 9%
CN(C)CCOc1ccc(C(C)(C)c2ccccc2)cc1 | -7% | x
COc1nc(N)c(S(=O)(=O)c2ccccc2)cc1C#N | -2% | 0%
O=C(CC1Nc2ccccc2NC1=O)Nc1ccccc1 (centres undefined) | -2% | 5%
Cc1ccc(NC(=O)CCCCCN2C(=O)[C@@H]3Cc4ccccc4CN3C2=O)cc1 | 12% | 4%

Part of the list above, as comma-separated lines:
canonical_smiles,N370S GC mod,TDP1 inh
O=C(NC1CCCc2c1cnn2-c1cc(F)cc(F)c1)c1ccc[n+]([O-])c1 (centres undefined),-8%,1%
O=C(O)CCCC(=O)Nc1ccc(Cl)cc1,6%,5%
O=C(NCC(c1ccco1)N1CCN(c2ccccc2)CC1)c1cccs1 (centres undefined),0%,x
S=C(c1ccccc1)N1CCSCC1,1%,x
CN(C)c1nc(Oc2ccc(=O)[nH]n2)nc(N2CCCCC2)n1,-7%,3%
COCCNC(=O)C1CCN(Cc2cccc(OCc3ccccc3)c2)CC1,-1%,x
Cc1ccccc1/C=C/c1nc2ccccc2c(=O)[nH]1,10%,2%
COCCn1nnnc1C(c1cc2ccc(OC)cc2[nH]c1=O)N1CCN(C2CCCCC2)CC1 (centres undefined),-1%,2%
O=C(Nc1cccc(F)c1)c1cccnc1NCCc1ccccc1,1%,-5%
CCOc1ccc(N2C(=O)C3C(c4ccccc4F)NN(C(=O)c4ccc(C)cc4)C3C2=O)cc1 (centres undefined),12%,-8%
Cc1ccc(/C(=C/CN2CCCC2)c2ccccn2)cc1,-6%,4%
Cc1c(C(Nc2ccccn2)c2ccc(Cl)cc2)c(=O)n(-c2ccccc2)n1C (centres undefined),9%,3%
CC(CC(=O)NCCc1ccc(Cl)cc1)S(=O)(=O)c1ccc2c(c1)NC(=O)CO2 (centres undefined),-4%,-1%
Cc1ccc2cc(C#N)c(NCCCNC(=O)C3CCCO3)nc2c1 (centres undefined),u,-4%
CCCCOC(=O)Nc1ccc(S(=O)(=O)Nn2cnnc2)cc1,-5%,9%
CN(C)CCOc1ccc(C(C)(C)c2ccccc2)cc1,-7%,x

Going on with the list.
SMILES | N370S GC mod | TDP1 inh
CC(OC(=O)C1CCN(S(=O)(=O)c2ccc(C(C)(C)C)cc2)CC1)C(=O)N1CCOCC1 (centres undefined) | -20% | 1%
O=C(CCCOc1ccc(Cl)cc1Cl)N/N=C/c1ccccc1 | 5% | -3%
O=C(CN1CCOCC1)Nc1ccc(OCc2ccccc2)cc1 | -2% | 0%
N#Cc1c(Nc2ccccc2)s[nH]c1=O | 5% | x
Fc1ccc(-c2nc3c(-c4ccc(Cl)cc4)cnn3cc2CCN2CCOCC2)cc1 | u | 3%
CC(C)CN(C(=O)c1ccc(-n2cncn2)c([N+](=O)[O-])c1)C1CCS(=O)(=O)C1 (centres undefined) | 2% | 6%
COC(=O)n1c(=O)oc2cc(S(=O)(=O)N3CCOCC3)ccc21 | 2% | 3%
Cc1ccc(SCC(=O)Nc2nccs2)cc1 | 7% | 9%
CCc1nc(NCCN2CCOCC2)c(C#N)c2c1CCCC2 | -10% | 7%
CCOC(=O)C1=NNC2(c3ccc(C)cc3)C(=O)N(c3ccccc3)C(=O)C12 (centres undefined) | -10% | -3%
COc1ccccc1CNC(=O)CN1CCN(c2ccc(C(C)=O)cc2)CC1 | -9% | 2%
Cc1nc2scc(-c3cccs3)c2c(=O)n1-n1cccc1 | 5% | 1%
C=C(C)Cn1c(C2CC(=O)N(c3ccccc3F)C2)nc2ccccc21 (centres undefined) | -3% | -1%
NC(=O)[C@@H]1CCCN1C(=O)c1ccc2nc(Cc3ccccc3F)oc2c1 | -3% | 2%
Cc1ccc(OCCCCN2CCCC(C)C2)c([N+](=O)[O-])c1 (centres undefined) | -7% | 0%
COc1ccc(S(=O)(=O)c2ccc(OC)c(OC)c2)cc1OC | -2% | 6%
Cc1ccc(Nc2nc(N)nc(CSc3ncccn3)n2)cc1 | x | 1%
C=CCN(CC=C)C(=O)C1CC(=O)N(c2ccc(Br)cc2)C1 (centres undefined) | 5%[2.35 µM] | 5%
CC(C)C(=O)N(Cc1cc2ccccc2[nH]c1=O)C(C)C | 3% | 2%
CN1C(=O)N(CC(=O)Nc2nccs2)C(=O)C12CCCCC2 | x | -1%[56.1 µM]
CCCCOc1ncnc2c1[nH]c1ccc(F)cc12 | -20% | 0%
CCC(CC)C(=O)Nc1cccc(C(=O)N2CCOCC2)c1 | 2% | 11%
O=C1CCC(C(=O)N2CCC(O)(c3ccccc3)CC2)CN1CCc1ccccc1 (centres undefined) | 0% | 4%
CCCN(CCO)Cc1ccc(F)c(Br)c1 | 12% | -4%
COc1ccc(-c2c(C)oc3c(CN4CCCCC4C)c(O)ccc3c2=O)cc1OC (centres undefined) | 4% | 3%
C/C(=N/OC(=O)c1ccccc1)c1oc(C)nc1C | -3% | 5%
C=CCNC(=S)Nc1c(N)n(C)c(=O)n(C)c1=O | 3% | 0%
COc1cc(OC)c(/C=N/N2CCN(c3ccccc3OC)CC2)c(OC)c1 | 4% | 9%
CCC(C(=O)NC1CC(C)(C)NC(C)(C)C1)c1ccccc1 (centres undefined) | 4% | x
O=C(Nc1ncccc1O)c1ccc(S(=O)(=O)N2CCCCCC2)cc1 | -12% | x
Cc1ccc2cc3cc(C(=O)NCCCN4CCCC4=O)oc3nc2c1 | -6% | 3%
Cc1ccc(S(=O)(=O)n2nc(C)c(S(=O)(=O)N3CCOCC3)c2C)cc1 | 3% | 3%
Cc1ccc(/C=N/OC(=O)c2c(C)noc2-c2snnc2C)cc1 | 0% | 2%
COc1ccc2c(c1)c1c3n2CCN(C)C3=NCC1 | 1% | 5%&0%
O=C(OC(C(=O)NC1CCCCC1)c1ccccc1F)c1ccco1 (centres undefined) | 3% | 1%
Cc1cc(C)n(C(=O)Cn2nc([N+](=O)[O-])c(Br)c2C)n1 | 2% | 0%
N#CCCn1cc(C(=O)Nc2ccc(C(=O)O)cc2)c(-c2cccs2)n1 | -5% | 3%
CNCCOc1ccccc1OC(C)C | -30% | u
COc1ccc(-c2ncccc2OC(=O)C23CC4CC(CC(C4)C2)C3)cc1 | 3% | 5%
Cc1ccc(S(=O)(=O)N2CCC(c3nnc(SCCN4CCCC4)n3C)CC2)cc1 | -3% | x
[O-][n+]1cccc2ncc3cscc3c21 | -3% | -13%
Cc1cccnc1NC(=O)CCC(=O)c1cccs1 | x | -4%
O=C(CSc1ccsc1[N+](=O)[O-])NCCc1ccc(Cl)cc1 | -1% | 1%
Cn1c(=O)n(C/C=C/c2ccccc2)c(=O)c2c1nc1n2CCCN1Cc1ccccc1 | 2% | 4%
Cn1c(SCC(=O)NC2CCCCC2)nnc1-c1ccccn1 | -5% | 3%
CC(=O)Nc1nc(CCN2C(=O)c3ccccc3C2=O)cs1 | 1% | 0%
COC(=O)c1ccc(NC(=O)Cc2ccc(F)cc2)cc1 | 4% | 4%

Screening results as filed in PubChem BioAssay.

Not all compounds are listed; most or all hits stand in other tables.
